# Screening data deposited in PubChem BioAssay by Johns Hopkins Ion Channel Center.
# KCNQ2 block = KCNQ2 potassium channel inhibitors, primary screen, cell-based, CHO-K1, FluxOR thallium flux, B-score (AID 2156). 20 min; stronger effect = lower value; only compounds with negative scores are shown here; some inactives read as strong as hits. 1.1% of 310,000 active. B-score at 10 µM. O88943;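 active means fluorescence ratio B-score at most minus 3 library SDs, with starting brightness B-score within 2 library SDs, cut at about -5.5 in these data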
# Target sequence (O88943 whole entry, looked up): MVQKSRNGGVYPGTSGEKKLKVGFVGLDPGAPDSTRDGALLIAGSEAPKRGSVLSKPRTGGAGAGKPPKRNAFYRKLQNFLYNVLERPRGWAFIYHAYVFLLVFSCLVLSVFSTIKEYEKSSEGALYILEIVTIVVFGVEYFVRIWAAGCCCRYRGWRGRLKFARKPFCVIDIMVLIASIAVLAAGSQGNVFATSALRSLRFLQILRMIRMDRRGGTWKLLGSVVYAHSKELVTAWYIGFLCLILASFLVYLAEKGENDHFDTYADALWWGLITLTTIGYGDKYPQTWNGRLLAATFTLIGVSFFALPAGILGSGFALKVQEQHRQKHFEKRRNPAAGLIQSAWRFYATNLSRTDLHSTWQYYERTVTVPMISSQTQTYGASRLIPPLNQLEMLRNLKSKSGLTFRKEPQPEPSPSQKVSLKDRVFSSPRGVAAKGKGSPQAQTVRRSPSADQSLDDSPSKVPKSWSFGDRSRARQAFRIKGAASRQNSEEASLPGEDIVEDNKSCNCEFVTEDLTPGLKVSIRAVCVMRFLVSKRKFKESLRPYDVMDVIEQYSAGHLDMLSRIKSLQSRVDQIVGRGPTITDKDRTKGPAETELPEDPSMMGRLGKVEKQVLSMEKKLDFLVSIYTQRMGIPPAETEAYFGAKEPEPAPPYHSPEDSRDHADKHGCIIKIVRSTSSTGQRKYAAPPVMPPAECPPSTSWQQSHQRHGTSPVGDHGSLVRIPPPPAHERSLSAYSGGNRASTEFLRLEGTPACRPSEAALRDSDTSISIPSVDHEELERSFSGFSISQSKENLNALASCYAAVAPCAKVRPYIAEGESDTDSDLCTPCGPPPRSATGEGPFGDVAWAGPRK
# KCNQ2 block baseline = recorded beside KCNQ2 block, whose call it bears; B-score; measured here: initial fluorescence intensity artifact check;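 brightness before thallium and not channel activity; 0 = typical well and far values either way flag optical interference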
# Numbers without * were called inactive; i = inactive.
SMILES,KCNQ2 block,KCNQ2 block baseline
CN1CCN(c2ccc(NC(=O)c3ccc(-c4ccc(Cl)cc4)o3)cc2)CC1,i,0.05
Nc1nnc(Cc2cccc(Br)c2)s1,i,1.1
Cc1ccc(N(C(=O)CNC(=O)c2ccco2)C(C(=O)NC2CCCC2)c2cccnc2)cc1F (stereo not given),i,2.9
Cc1ccccc1C(=NCCCN(C)C)c1ccccc1C,i,0.78
Cc1ccc(NC(=S)Nc2cc(C)on2)cc1,i,-0.33
COc1ccccc1C(=O)NCC(=O)NCC1(N2CCCCC2)CCCCC1,i,0.69
COc1ccc(-c2cc(C(F)(F)F)n3nc(N)nc3n2)cc1,i,0.34
O=C(CO/N=C/c1ccc(OC(F)F)cc1)NC1CCCCCC1,i,2.9
CC(C)c1c(C(=O)N/N=C/c2ccc(C(F)(F)F)cc2)nnn1-c1nonc1N,i,0.03
Cc1ccc(CNC(=O)CN2C(=O)NC(C)(c3cccc(Br)c3)C2=O)cc1 (stereo not given),i,0.6
COc1cccc(CN(C)C(=O)c2ccc3c(=O)n4c(nc3c2)CCC4)c1OC,i,-0.72
COc1ccccc1CN(CC(=O)NCc1ccco1)C(=O)CNS(=O)(=O)c1ccc(C)cc1,i,2.8
O=C(O)c1cccc(NN=C2c3ccccc3-c3ccccc32)c1,i,-1.4
O=C(Nc1ccc(-c2noc(-c3cccs3)n2)cc1)c1cccnc1,i,1.4
Cc1noc(/C=C/c2ccco2)c1S(=O)(=O)N1CCC(C(=O)Nc2ccc(Cl)cn2)CC1,i,-0.5
Cc1ccccc1CC1(CO)CCCN(C(=O)Cc2c(F)ccc(F)c2F)C1 (stereo not given),i,-0.73
Cn1nnnc1SCC(=O)Nc1c(Cl)cccc1Cl,i,0.78
NC(=O)Nn1c(CCC(=O)O)ccc1-c1ccc(Br)cc1,i,0.57
Cc1cccc(NC(=O)CSc2nc3nc4c(cc3c(=O)n2-c2ccccc2)CCCC4)c1,i,0.46
Cc1ccc(-c2csc(NC(=O)c3cccc(N4C(=O)CCC4=O)c3)n2)o1,i,-1.5
Cc1ccc(C)c(Cn2c(=O)c3c(nc4n3CCN4Cc3ccco3)n(C)c2=O)c1,i,0.22
O=C(NC1CCCCCC1)C1CCN(S(=O)(=O)c2cccc3cccnc23)CC1,i,0.49
CC(C(=O)NCCc1ccccc1)N1c2cccc3cccc(c23)S1(=O)=O (stereo not given),i,0.83
CCc1c(C(=O)NCc2ccccc2Cl)[nH]c(C)c1C(C)=O,i,-1.6
Cc1ccccc1S(=O)(=O)Nc1cccnc1,i,0.56

# Arranged by SMILES length (smallest number first): some entries from above.
SMILES,KCNQ2 block,KCNQ2 block baseline
Cc1ccccc1S(=O)(=O)Nc1cccnc1,i,0.56
Cn1nnnc1SCC(=O)Nc1c(Cl)cccc1Cl,i,0.78
NC(=O)Nn1c(CCC(=O)O)ccc1-c1ccc(Br)cc1,i,0.57
O=C(O)c1cccc(NN=C2c3ccccc3-c3ccccc32)c1,i,-1.4
COc1ccccc1C(=O)NCC(=O)NCC1(N2CCCCC2)CCCCC1,i,0.69
CC(C(=O)NCCc1ccccc1)N1c2cccc3cccc(c23)S1(=O)=O (stereo not given),i,0.83

# Compound profiles, from the list above.
# O=C(CO/N=C/c1ccc(OC(F)F)cc1)NC1CCCCCC1 reads KCNQ2 block: i; KCNQ2 block baseline: 2.9
# O=C(NC1CCCCCC1)C1CCN(S(=O)(=O)c2cccc3cccnc23)CC1 reads KCNQ2 block: i; KCNQ2 block baseline: 0.49
# COc1ccccc1C(=O)NCC(=O)NCC1(N2CCCCC2)CCCCC1 reads KCNQ2 block: i; KCNQ2 block baseline: 0.69

# Continued:
SMILES,KCNQ2 block,KCNQ2 block baseline
Cc1[nH]c2ccccc2c1C(=O)C(C)OC(=O)c1ccc([N+](=O)[O-])o1 (stereo not given),i,0.13
COc1ccc(CN2CSC(=S)N(Cc3ccccc3)C2)cc1,i,2
O=C(Nc1ccc2c(c1)OCO2)c1ccc(Cl)nc1,i,-2.1
CC1(C)CC2(CCCN(CC(O)(c3ccccc3)c3ccccc3)C2)CCO1 (stereo not given),i,-1.1
N#Cc1cc(C(=O)c2ccccc2OCC(=O)Nc2ccccc2Cl)cn(C2CCCCC2)c1=O,i,0.25
COc1ccc(S(=O)(=O)N2CCC(C(=O)NCCC(=O)NCc3ccccc3OC)CC2)cc1,i,0.26
O=C(c1cccnc1)N1CCN(S(=O)(=O)c2ccc(F)cc2)CC1,i,0.11
CC(=O)c1ccc(O)c(CC=C(C)C)c1O,i,-1
C/C(Cl)=C/Cn1c(SCC(C)C)nc2c1c(=O)[nH]c(=O)n2C,i,-0.02
COCCCNC(=O)CN(c1ccc(OC)cc1)S(=O)(=O)c1ccc(NC(C)=O)cc1,i,-1.4
Cc1ccc2nc(CCCc3nc4ccc(C)cc4[nH]3)[nH]c2c1,i,2
S=c1[nH]nc(-c2cc(-c3ccccc3)n[nH]2)n1/N=C/c1cccc(Cl)c1,i,-1.2
Cc1ccc(-c2c(C)c(-c3ccc(F)cc3)nc(N)c2C#N)o1,i,0.45
CCOC(=O)c1c(NC(=O)CSc2nnnn2-c2ccccc2)sc2c1CC(C)(C)NC2(C)C,i,-0.21
COCCn1c(SCc2cc(=O)n3cc(C)ccc3n2)nc2ccccc2c1=O,i,1.1
COc1ccc(-c2c3c(=O)n(C)c(=O)n(C)c3cn2Cc2ccccn2)cc1,i,0.29
CCC(=O)Nc1ccc2oc(-c3ccccc3Br)nc2c1,i,2.1
Cc1cccc(N(Cc2cc(=O)[nH]c3ccccc23)C(=O)C(C)C)c1,i,-0.19
O=C(/C=C\c1ccco1)Nc1nc(-c2ccc3ccccc3c2)cs1,i,-0.23
CCCCCOc1ccc(/C=C/C(=O)NCCc2nc3ccccc3[nH]2)cc1OC,i,-0.2
N#CCC(CNc1ncc(C(F)(F)F)cc1Cl)OC(=O)c1ccc(Cl)cc1 (stereo not given),i,-0.31
O=C(CSc1cccc[n+]1[O-])c1ccccc1Br,i,0.69
c1ccc(Cn2c(NCc3ccccn3)nc3ccccc32)cc1,i,0.3
O=C(NCc1ccc(N2CCCC2=O)cc1)c1cnccn1,i,-1.7
O=C(Nc1cccc(C(F)(F)F)c1)c1ccc(N2CCNCC2)c([N+](=O)[O-])c1,i,-0.34
# Next section
SMILES,KCNQ2 block,KCNQ2 block baseline
CC(C)[C@H]1CN=C2N(CCNC(=O)CCC3CCCCC3)[C@H](Cc3ccc(O)cc3)CN21,i,4.1
CCOC(=O)c1c(C)[nH]c(C)c1C(=O)CSc1nc2ccccc2n1CCC#N,i,0.31
CC[n+]1c(S(=O)(=O)[O-])ccc2ccc(C)cc21,i,1.4
Cc1ccccc1OCC(=O)Nc1ccc2oc(=O)ccc2c1,i,0.05
Cc1cc2oc3c(c(=O)c2cc1C)C(c1ccc(F)cc1)N(CCCN1CCOCC1)C3=O (stereo not given),i,0.56
CCCOC(=O)C1=C(C)NC2=C(C(=O)CC(C)(C)C2)C1c1ccc(N(C)C)cc1 (stereo not given),i,-0.36
Cc1cccc(N2CCN(C(=O)C3CCN(S(=O)(=O)c4cccc5nsnc45)CC3)CC2C)c1 (stereo not given),i,-1.4
Cn1c(SCC(=O)N2CCOCC2)nnc1-c1ccncc1,i,-0.47
CCc1nnc(NC(=O)CSc2nnc(CSc3nc(C)cc(C)n3)o2)s1,i,-0.04
O=C(Nc1ccc(N2CCOCC2)cc1)C1(c2ccc(Cl)cc2)CCC1,i,0.28
CC(C)COC(=O)n1c(=O)oc2cc(S(=O)(=O)N3CCCCC3)ccc21,i,1.4
Cc1nc2ccc(S(=O)(=O)Nc3cc(-c4nc5cccnc5s4)ccc3C)cc2s1,i,-0.38
CC(C)CN(C(=O)COC(=O)c1ccccc1Sc1ccccc1C#N)C1CCS(=O)(=O)C1 (stereo not given),i,2.1
CCOc1ccc(C2c3[nH]c4ccccc4c3CCN2CCCn2cccn2)cc1 (stereo not given),i,-1.4
CCN(CC)C(=O)CSc1nc(-c2cccs2)cc(-c2cccs2)c1C#N,i,-1.2
CC(=O)Nc1cccc(Cl)c1C(=O)O,i,1.1
CCOC(=O)C1CCN(C(=O)C2CCN(S(=O)(=O)CC)CC2)CC1,i,-0.83
COc1ccc(-c2nnc(SCC(=O)N3CCN(c4ccccc4)CC3)o2)cc1OC,i,-1.2
Cc1c(CNC2CCC(C)CC2)c(C(=O)O)c(C)n1Cc1ccccc1 (stereo not given),i,-0.36
CCN(CC1CCCO1)C(=O)CCc1nnc(Cc2ccc3c(c2)OCO3)o1 (stereo not given),i,-0.15
COc1ccc(S(=O)(=O)N2CCN(C(=O)Cc3cccs3)CC2)cc1,i,-0.39
CCOC(=O)c1c(-c2ccc(-c3ccccc3)cc2)csc1NC(=O)C1C2CCC(O2)C1C(=O)O (stereo not given),i,-1.1
CSc1ncc(C(=O)Nc2cccc(Cl)c2C)c(C)n1,i,0.64
COc1ccc(/C(C)=N/N2CCOCC2)c(O)c1,i,-0.05
O=C(O)CCN1Cc2ccccc2C1=O,i,-0.5
# More structures.
SMILES,KCNQ2 block,KCNQ2 block baseline
COc1ccc(NC(=O)CCN2CCN(S(=O)(=O)c3cc(Cl)ccc3OC)CC2)cc1,i,2.4
CCC(NC(=O)COc1ccc([N+](=O)[O-])cc1)c1ccccc1 (stereo not given),i,-1.4
COc1ccc(-c2noc(-c3ccc(C)cc3)n2)cc1,i,-0.23
Cn1c(=O)c2c(nc(N3CCNCC3)n2Cc2cccc3ccccc23)n(C)c1=O,i,-0.19
O=C(Nc1ccc(S(=O)(=O)Nc2ncccn2)cc1)c1ccccc1,i,0.01
CCCNC(=O)c1nc2ncc(Br)cn2n1,i,-1.1
O=C(COC(=O)CC12CC3CC(CC(C3)C1)C2)Nc1cccnc1Cl,-7.3*,0.17*
Clc1ccc(C2=C3CCCCn4c(-c5ccccc5)c[n+](c43)C2)cc1,-6.4*,-0.02*
CCOP(=O)(OCC)c1nc(-c2cccc([N+](=O)[O-])c2)oc1N1CCCCC1,i,2.4
O=C(OCc1ccccc1Cl)c1cc([N+](=O)[O-])ccc1N1CCOCC1,i,-0.01
CCOc1ccc(S(=O)(=O)NCc2ccc(Cl)cc2)c2cccnc12,i,0.24
COc1ccc(OC)c(S(=O)(=O)NC(C)CCc2ccccc2)c1 (stereo not given),i,0.23
CCOc1cc(CN2CCN(c3cccc(C(F)(F)F)c3)CC2)ccc1OC,i,-1.1
Cc1nn(C)cc1/C=N/NC(=O)c1ccc2c(c1)OCO2,i,-0.45
Cc1cc(=O)[nH]c(N/N=C/c2c(O)n(-c3ccccc3)c(=O)c3ccccc23)n1,i,0.05
Cc1ccc(S(=O)(=O)Nc2cc(C(C(=O)OC(C)C)C(=O)C(F)(F)F)c(O)c3ccccc23)c(C)c1 (stereo not given),i,0.45
CC(=O)N1CC(C)Oc2ccc(S(=O)(=O)Nc3ccc(Cl)cn3)cc21 (stereo not given),i,-0.7
CCOC(=O)c1c(-c2ccc(C)cc2)csc1NC1=NS(=O)(=O)c2ccccc21,i,2.7
CCOC(=O)N(C)OC(=O)Nc1ccc(Cl)c(Cl)c1,i,2.4
C=C(C)CNC(=S)N/N=C/c1ccc([N+](=O)[O-])cc1,i,-1.5
COc1cccc(CNc2ccc([N+](=O)[O-])cc2Cl)c1O,i,-1.3
CCOc1ccc(C(=O)c2cc([N+](=O)[O-])ccc2N2CCOCC2)cc1,i,0.11
COc1ccccc1CN(Cc1nc2ccccc2c(=O)[nH]1)C(=O)Nc1cccc(C)c1,i,-1.4
C=CCn1c(-c2ccc3ncccc3c2)n[nH]c1=S,i,0.29
COc1cc(NC(=O)CNC(c2ccccc2)c2ccccc2)cc(OC)c1OC,i,-0.03
# (more compounds)
SMILES,KCNQ2 block,KCNQ2 block baseline
Clc1ccc(C2=CSC3=Nc4cccc5cccc(c45)N23)cc1,i,0.01
CN(C)c1ccc(CNC23CN4CN(CN(C4)C2)C3)cc1,i,-0.12
N=C(N)SCc1nc2ccccc2c(=O)n1-c1ccccc1Cl,i,0.07
O=C(NCCCO)C(=O)NCc1ccccn1,i,-1.3
O=C(NCCc1ccc(C(F)(F)F)cc1)C1COc2ccccc2O1 (stereo not given),i,1.9
O=C(NCc1nnc(SCC(=O)N2CCCC2)o1)c1cccc(C(F)(F)F)c1,i,-0.3
O=C(CSc1nc2ncccc2[nH]1)c1ccc2c(c1)OCO2,i,0.52
CC(C)(C)N1CSC(=S)N(Cc2ccccc2)C1,i,-0.75
CN(C)c1c(-c2ccccc2)cc(-c2ccccc2)[nH]c1=O,i,-0.76
CC(C(=O)N/N=C/c1ccc(N(C)C)c(Br)c1)N(c1ccccc1)S(C)(=O)=O (stereo not given),i,-0.26
CCOc1ccc(-n2c(SCC(=O)c3c(N)n(C)c(=O)n(C)c3=O)nnc2-c2cccnc2)cc1,i,0.01
O=C(CCCN1C(=O)c2ccccc2C1=O)Nc1nc2ccccc2[nH]1,i,2.1
Cc1cc(C(=O)Nc2cccc3ccccc23)co1,i,0.53
CC(Cc1cccs1)NC(=O)CCCn1nnnc1CN1CCOCC1 (stereo not given),i,-0.06
N#Cc1ccc(/C=C/C(=O)c2ccc3c(c2)OCO3)cc1,i,-0.76
CCCCNC(=O)C1CCCNC1=O (stereo not given),i,-1.7
Clc1ccccc1OCCn1nnc2ccccc21,i,-0.02
O=C(NC1CCCCC1)C(=S)N1CCCC1,i,1
CC(=O)Nc1ccc(/C=N/Nc2nc3ccccc3[nH]2)cc1,i,1.3
Cc1ccc(C)c(N2CCN(C(=O)c3ccc(Cn4c(=O)[nH]c5ccccc5c4=O)cc3)CC2)c1,i,-0.36
C=CCOc1ccccc1/C=c1\sc2nc(-c3oc4ccccc4c3C)nn2c1=O,i,0.66

# An excerpt; count on the stated rates, not on these rows.
